PGK inhibitor = inhibitors of T. brucei phosphoglycerate kinase; P07378; PGK/GAPDH coupled, Kinase-Glo luminescence, 60 min; Potency, µM (series often up to 57.5 µM), for the others: top-dose activity change, negative = inhibition, most hits filed as inhibitors; 380,000 tested, 0.043% active; note: potency is the fitted concentration of half-maximal effect; nearly all actives have a fitted effect of over 60% in size
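Recombinant glycosomal PGK reaction used 1,3-bisphosphoglycerate generated in-well by GAPDH (100nM final) in 100mM TEA pH 7.6, 5mM MgCl2, 0.01% Tween-20. After 60 minutes at room temperature, ATP was read by Kinase-Glo Plus luminescence end-point.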
Pin1 inh = blocks the human prolyl isomerase Pin1. Q13526. Pin1 FP peptide displacement, HiFluor488, 10 min. 390,000 tested, 0.009% active. Potency, µM (doses to about 115 µM), for inactives: at the highest dose activity, negative = inhibition, usual class: inhibitors; active = well fitted inhibition curve with a large enough effect in the polarisation, with a control signal flat, not every such curve was filed as active; inconclusive = small, poorly fitted or top-dose-only effect, or effect the other way, or a change in a side signal; inactive = no such curve, though single readings can be large or run the other way; the % refers to the polarisation; note: potency is the fitted concentration of half-maximal effect
PI4K2A block = inhibitors of human PI4K2A. Q9BTU6. purified PI4K2A, ADP-Glo luminescence, 1 h; active compounds read low. activity change, negative = inhibition, % at 76.9 µM. 420,000 tested, 0.13% active. AID 1346378; in the data active = activity change below about -50%; inconclusive = mostly about -30% to -49%;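 note: -100% = wells without enzyme as full effect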
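ADP-Glo luminescence measured ADP generated by PI4K2A enzyme (4 ug/mL before mixing) with 1.2 mM PI substrate (pre-mix) and 300 microM ATP (pre-mix). Tris pH7.5 buffer with MgCl2, Triton X-100; 1 h reaction at ambient temperature.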
GLS inhibitor = inhibitors of human glutaminase (GLS); Potency, µM (top dose mostly 45.5 µM), without a hit: at the highest dose activity change, negative = inhibition, hits mostly inhibitors; O94925; 410,000 tested, 0.21% active; GLS enzymatic activity, qHTS titration; note: potency is the fitted concentration of half-maximal effect
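Human kidney-isoform GLS in 45 mM KH2PO4 pH 8.2, 0.02% Tween-20, with compound, started with 1mM L-Glutamine (added stock). Glutamate oxidase/HRP/Amplex red coupled fluorescence read at start and after 30 min at RT.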
POLH inh = inhibitors of human DNA polymerase eta | Q9Y253 | recombinant Pol eta, fluorescent DNA replication assay | Potency, µM (titrated, usually from 114 µM), without a hit: top-dose activity change, negative = inhibition, actives largely listed as inhibitors | 390,000 tested, 1.2% active | AID 588591; note: potency is the fitted concentration of half-maximal effect
Target sequence (Q9Y253 whole entry, looked up): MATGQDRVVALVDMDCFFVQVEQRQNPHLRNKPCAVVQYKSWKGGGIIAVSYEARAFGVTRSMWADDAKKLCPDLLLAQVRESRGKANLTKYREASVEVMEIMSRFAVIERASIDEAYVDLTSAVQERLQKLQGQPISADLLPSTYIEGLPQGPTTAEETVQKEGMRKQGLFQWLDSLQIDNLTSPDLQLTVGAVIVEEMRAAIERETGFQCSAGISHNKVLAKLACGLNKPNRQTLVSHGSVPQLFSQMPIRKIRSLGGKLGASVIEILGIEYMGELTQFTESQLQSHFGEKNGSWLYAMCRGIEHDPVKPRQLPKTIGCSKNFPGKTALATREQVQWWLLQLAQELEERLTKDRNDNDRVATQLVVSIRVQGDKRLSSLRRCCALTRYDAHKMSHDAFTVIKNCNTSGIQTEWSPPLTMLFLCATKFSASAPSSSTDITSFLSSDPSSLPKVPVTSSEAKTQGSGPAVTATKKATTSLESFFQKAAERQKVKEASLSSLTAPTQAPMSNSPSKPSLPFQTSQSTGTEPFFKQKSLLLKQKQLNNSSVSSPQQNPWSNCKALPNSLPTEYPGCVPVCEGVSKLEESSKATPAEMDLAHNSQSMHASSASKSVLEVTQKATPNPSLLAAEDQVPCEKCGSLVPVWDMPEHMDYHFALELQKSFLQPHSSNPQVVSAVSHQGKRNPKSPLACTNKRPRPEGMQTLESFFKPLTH
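Pol eta at 10 nM preincubated with compounds 15 min at room temperature; reaction started with fluorescent substrate (50 nM final) and read kinetically at 0 and 10 min.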
An asterisk follows results filed as active; i = inactive; ? = inconclusive; & = joins results of further samples; [ ] = dose if it differs, or a comment. Unless noted, calls come from the whole dose curve; as a rule, active = well fitted curve in the direction sought with a large enough effect; inconclusive = small, poorly fitted or top-dose-only effect, or another doubt; inactive = no such curve, though single readings can be large; an effect the other way counts as inactive or inconclusive. Unless noted, % is set by controls: 0 for no effect and ±100 for the full control effect. A portion of the library. The share of hits here may be higher or lower than overall.

Each structure is followed by: PGK inhibitor	Pin1 inh	PI4K2A block	GLS inhibitor	POLH inh
#1 CC(C)NC[C@H](O)COc1cccc2[nH]ccc12
    1.7%	5.6%	0.1&-0.3	22.3%	-0.7%[57.1 µM]
#2 CCCCCC1CC(CC#CCN2CCOCC2)C(=O)O1 (stereo not given)
    -9.9%	-9.4%	-2.0	-0.3%	-3.5%
#3 COc1cc(CN2CCSCC2)cc(OC)c1OC
    8.0%	-8.8%	7.6	-1.2%	-7.9%
#4 C[C@H]1O[C@H]1P(=O)(O)O
    -2.7%	-7.9%	-1.7	-3.2%	-0.8%
#5 CN1CCC(N(C)Cc2cccnc2)CC1
    7.4%	-2.1%	2.4	3.3%	1.4%
#6 O=C(CN1CCCC1)Nc1ccc(Cl)cc1C(=O)c1ccccc1
    -3.2%	-11.4%	1.4	-2.5%	-6.0%
#7 COc1ccc(OCC#CCN2CCCCCC2)cc1
    i	-22.1%	2.8	2.1%	-13.8%
#8 CC(C)n1c(/C=C/[C@@H](O)C[C@@H](O)CC(=O)O)c(-c2ccc(F)cc2)c2ccccc21
    -7.4%	6.6%	-1.3&3.9	-0.4%	-18.3%
#9 O=C(COc1ccccc1)N1CCN(CC2CC3C=CC2C3)CC1 (stereo not given)
    3.7%	-8.6%	-0.6	-5.8%	-10.0%
#10 CCCN(CC1CC1)CC(O)c1ccccc1 (stereo not given)
    -5.8%	-6.7%	10.9	-6.2%	-6.9%

Down the list, as entered above.
Nos. 4–9 in Pin1 inh read -7.9%, -2.1%, -11.4%, -22.1%, 6.6%, -8.6%
Nos. 4–9 in PI4K2A block read -1.7, 2.4, 1.4, 2.8, -1.3&3.9, -0.6

(next part)
Each structure is followed by: PGK inhibitor	Pin1 inh	PI4K2A block	GLS inhibitor	POLH inh
#11 CCOc1cc2c(cc1OCC)-n1cccc1C(c1cccc(F)c1)NC2 (stereo not given)
    i	-2.7%	-7.0	10.0%	?
#12 COc1cc(-c2nc3ccc(Cl)cn3c2Nc2ccc3c(c2)OCCO3)ccc1O
    -9.3%	7.5%	2.1	2.1%	-26.3%
#13 CC(C)[N+]1(C)[C@@H]2CC[C@H]1CC(OC(=O)C(CO)c1ccccc1)C2 (stereo not given in full)
    4.5%&9.2%	4.6%&-9.7%&0.8%	-5.4&0.3&-3.9	-8.7%&1.5%&-7.0%&0.5%	-1.0%&-3.9%&-15.3%
#14 CCn1c(=S)sc2c(=O)[nH]c(SCC(=O)Nc3cc(OC)ccc3OC)nc21
    -7.8%	-5.2%	-2.0	2.7%	50.1µM*
#15 CC(C)NS(=O)(=O)c1ccc(OCC(=O)N2CCN(Cc3ccccc3)CC2)c(Cl)c1
    -8.5%	-0.3%	-6.8	5.7%	-15.1%
#16 O=[N+]([O-])c1ccc(Sc2nc3ccccc3o2)c([N+](=O)[O-])c1
    -6.8%	2.9%	32.2	-11.1%	50.1µM*
#17 CN(C)C(=O)C(CCN1CCC(O)(c2ccc(Cl)cc2)CC1)(c1ccccc1)c1ccccc1
    4.0%	7.1%	-3.3&-1.9&-5.4	2.9%&-14.5%	-7.4%
#18 CC(C)(C)c1cc(C=C(C#N)C#N)cc(C(C)(C)C)c1O
    -8.1%	6.5%	10.8&-0.7	-8.0%	-15.0%
#19 COc1cc(OC)cc(C(=O)N2CCC(N3CCN(c4ccccc4)CC3)CC2)c1
    -4.4%	-10.1%	-7.1	12.6%	-1.6%
#20 CC1CCN(c2nc(NCc3ccco3)nc(N)c2[N+](=O)[O-])CC1
    6.5%	-0.3%	-1.8	3.9%	-16.2%
#21 CCOc1cc2c(cc1OCC)-n1cccc1C(c1ccc(OC)c(O)c1)NC2 (stereo not given)
    -5.6%	-1.6%	-2.0	18.0%	-19.5%
#22 COc1ccc(CN2CCN(C(=O)COc3ccc4ccccc4c3)CC2)c(OC)c1
    3.8%	-1.1%	2.2	1.7%	?

Taken from above.
#6 @ PGK inhibitor = -3.2%
#20 @ PGK inhibitor = 6.5%
#19 @ POLH inh = -1.6%

Quoted at random: 3 compounds from above, in no set order.
Each structure is followed by: PGK inhibitor	Pin1 inh	PI4K2A block	GLS inhibitor	POLH inh
#16 O=[N+]([O-])c1ccc(Sc2nc3ccccc3o2)c([N+](=O)[O-])c1
    -6.8%	2.9%	32.2	-11.1%	50.1µM*
#14 CCn1c(=S)sc2c(=O)[nH]c(SCC(=O)Nc3cc(OC)ccc3OC)nc21
    -7.8%	-5.2%	-2.0	2.7%	50.1µM*
#13 CC(C)[N+]1(C)[C@@H]2CC[C@H]1CC(OC(=O)C(CO)c1ccccc1)C2 (stereo not given in full)
    4.5%&9.2%	4.6%&-9.7%&0.8%	-5.4&0.3&-3.9	-8.7%&1.5%&-7.0%&0.5%	-1.0%&-3.9%&-15.3%

Full records, quoted from the list:
Listed for O=C(COc1ccccc1)N1CCN(CC2CC3C=CC2C3)CC1 (stereo not given) = PGK inhibitor: 3.7%; Pin1 inh: -8.6%; PI4K2A block: -0.6; GLS inhibitor: -5.8%; POLH inh: -10.0%
Listed for CN(C)C(=O)C(CCN1CCC(O)(c2ccc(Cl)cc2)CC1)(c1ccccc1)c1ccccc1 = PGK inhibitor: 4.0%; Pin1 inh: 7.1%; PI4K2A block: -3.3&-1.9&-5.4; GLS inhibitor: 2.9%&-14.5%; POLH inh: -7.4%
Listed for COc1ccc(CN2CCN(C(=O)COc3ccc4ccccc4c3)CC2)c(OC)c1 = PGK inhibitor: 3.8%; Pin1 inh: -1.1%; PI4K2A block: 2.2; GLS inhibitor: 1.7%; POLH inh: ?

Screens: PubChem BioAssay, National Center for Advancing Translational Sciences (NCATS)
